TRPV1 PAM – human TRPV1 potentiation; Q8NER1; TRPV1-expressing cells, Fluo-8 calcium influx, capsaicin EC20 potentiation; host cell line not named in the record; control for the full effect not named in the record; potentiation, % at 8.33 µM; hit rate 0.02% among 320,000; AID 540277; active means potentiation above 80%; inconclusive means 30% to 80%; inactive means below 30%; also: 0% is about no effect
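Fluo-8 calcium influx in TRPV1-expressing cells, kinetic read (ex 480/em 520 nm). Compound added and read 3 min for agonist activity, followed by capsaicin at EC20 final and 2 min further read for enhancement.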
TRPML1 agonist – agonists of human TRPML1 channel; Q9GZU1; TRPML1-expressing cells, Ca2+ dye fluorescence, FDSS; host cell line not named in the record; reference of the full effect not given here; activation, % (concentration not given with the values); hit rate 0.12% among 410,000; AID 624414; in the data active = activation above about 50%; inconclusive = about 30% to 50%; inactive = below about 30%; also: 0% is about no effect; the text of the record puts the active cut at 80%
Target sequence (Q9GZU1 whole entry, looked up): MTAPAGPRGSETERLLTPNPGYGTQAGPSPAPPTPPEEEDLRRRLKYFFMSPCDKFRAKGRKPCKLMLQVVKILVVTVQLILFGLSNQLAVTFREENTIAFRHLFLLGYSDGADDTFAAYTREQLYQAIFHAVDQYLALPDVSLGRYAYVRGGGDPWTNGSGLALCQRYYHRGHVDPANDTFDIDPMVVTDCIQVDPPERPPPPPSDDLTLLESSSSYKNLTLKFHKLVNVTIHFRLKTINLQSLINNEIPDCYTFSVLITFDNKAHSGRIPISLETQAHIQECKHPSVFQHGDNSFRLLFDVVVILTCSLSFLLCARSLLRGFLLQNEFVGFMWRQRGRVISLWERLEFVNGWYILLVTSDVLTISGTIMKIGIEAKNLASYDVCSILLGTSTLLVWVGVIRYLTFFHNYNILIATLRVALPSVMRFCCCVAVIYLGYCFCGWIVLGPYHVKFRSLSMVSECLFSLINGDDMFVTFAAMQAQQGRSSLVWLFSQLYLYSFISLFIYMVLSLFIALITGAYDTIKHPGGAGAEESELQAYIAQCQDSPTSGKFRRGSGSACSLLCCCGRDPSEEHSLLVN
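In this qHTS format, compounds were pin-transferred onto Ca8-dye-loaded TRPML1-DL cells induced with Tet overnight, and intracellular Ca2+ fluorescence was recorded kinetically for 110 s after a 10 s baseline. A subsequent 4uM final 54-4 (EC80) addition followed by a second 110 s read served as the antagonist phase.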
Six1-Eya2 blk – inhibitors of human Six1/Eya2 interaction. Q15475+O00167. AlphaScreen GST-Six1/His-Eya2 binding, biochemical; active compounds read low; control for the full effect not named in the record. activity change, % (concentration not given with the values). hit rate 0.56% among 360,000. AID 651725; in the data active = activity change below about -65%; inconclusive = about -30% to -65%; inactive = above about -30%; also: % is scaled to controls: 0 for no effect and ±100 for the full control effect
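Homogeneous AlphaScreen proximity assay pairing GST-Six1 with His-tagged Eya2 (added as 5X mix: 250 nM and 500 nM) in 50 mM Tris pH 8.0, 300 mM NaCl, 1 mM TCEP. Glutathione donor and nickel acceptor beads; 1 h, 37 °C, dark.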
TRPML1 blocker – human mucolipin-1 channel inhibition; hit rate 0.02% among 390,000; activity change, negative = inhibition, % (test concentration not listed); Q9GZU1; TRPML1-inducible cells, Ca2+ dye fluorescence, FDSS; active compounds read low; inhibition of EC80 agonist-evoked calcium signal; in the data active means activity change below about -50%; inconclusive means about -30% to -50%; inactive means above about -30%;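 also: stimulus is agonist 54-4 at its EC80 concentration; % is scaled to controls: 0 for no effect and ±100 for the full control effect; compound concentration not given in the record; the text of the record puts the active cut at -80%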
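TRPML1-DL cells, Tet-induced overnight (~16 h, 37 °C) at 1,500 cells/well, were loaded with Ca8 no-wash dye plus quencher for 45-90 min at room temperature. Compounds were pinned during FDSS kinetic reading; agonist 54-4 at EC80 (4 uM final) then added.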
CtBP-E1A blk – inhibitors of CtBP/E1A interaction. AlphaScreen GST-E1A/His-CtBP binding, 1536-well; active compounds read low; control for the full effect not named in the record. activity change, % (no concentration beside the values). hit rate 0.49% among 340,000. AID 651724; in the data active means activity change below about -65%; inconclusive means about -30% to -65%; inactive means above about -30%; also: % is scaled to controls: 0 for no effect and ±100 for the full control effect
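Steps: dispense buffer (Tris pH 8.0, NaCl 300 mM, TCEP 1 mM, BSA, Tween 20); add 5X protein mix (GST-E1A, His-CtBP, 125 nM each); pin 23 nL compound; 2 h at 37 °C, dark; add 5X beads (50 ug/mL); 1 h; read.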
D2 potentiator – positive allosteric modulators of human D2 dopamine receptor. P14416. DiscoveRx D2 beta-arrestin cells, luminescence, 90 min; 100% = 57 uM dopamine signal. potentiation, % (concentration not given with the values). hit rate 0.23% among 360,000. AID 624464; active = potentiation of 50% or more; inconclusive = 30% to 50%; inactive = 30% or less;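 also: compound concentration not given in the record; tested on top of an EC20 dose of dopamine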
Target sequence (P14416 whole entry, looked up): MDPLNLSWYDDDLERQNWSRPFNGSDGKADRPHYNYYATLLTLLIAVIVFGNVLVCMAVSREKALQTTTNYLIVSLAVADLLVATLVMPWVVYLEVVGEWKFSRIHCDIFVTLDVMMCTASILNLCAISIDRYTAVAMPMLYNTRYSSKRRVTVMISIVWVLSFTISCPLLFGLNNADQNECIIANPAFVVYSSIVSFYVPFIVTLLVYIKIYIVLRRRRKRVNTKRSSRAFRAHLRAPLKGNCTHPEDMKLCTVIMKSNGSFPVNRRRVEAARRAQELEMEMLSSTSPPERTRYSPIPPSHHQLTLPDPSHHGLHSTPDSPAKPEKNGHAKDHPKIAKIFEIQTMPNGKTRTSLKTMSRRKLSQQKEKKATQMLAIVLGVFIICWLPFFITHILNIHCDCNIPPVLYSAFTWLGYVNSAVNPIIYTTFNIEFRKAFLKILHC
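D2 cells co-treated with compound plus 50 nM dopamine (EC20) for 90 min at 37 deg C to detect potentiation. Beta-arrestin recruitment was read as enzyme-fragment luminescence after 1 h at ambient temperature. Full response was set by 57 uM dopamine.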
* marks the source's active call; other numbers are inactive results; ? = inconclusive; / = no result given.

SMILES	TRPV1 PAM	TRPML1 agonist	Six1-Eya2 blk	TRPML1 blocker	CtBP-E1A blk	D2 potentiator
COc1ccc(NC(=S)N(Cc2ccccn2)Cc2ccccc2Cl)cc1	5	0.4	7	1	4	-4
CC(=O)Nc1ccc(NC(=O)c2ccc(COc3ccc(C)cc3)o2)cc1	16	-0.5	-4	10	0	-1
O=C(OCC(=O)N(Cc1ccccc1)Cc1ccccc1)c1ccccc1O	-9	2.7	8	-2	17	3
CCCNC(=O)C1(C)CCCN(C(=O)COc2ccc(C(C)(C)C)cc2)C1 (configuration not stated)	/	-0.4	9	/	-19	-2
COCC(=O)Nc1cccc(C(F)(F)F)c1	5	-0.3	0	-3	11	-16
O=C(Nc1cccc2ccccc12)N1CCN(Cc2ccccc2)CC1	16	0.5	-2	-11	1	-18
Cc1cccn2cc(COc3ccc(-c4ccccc4)cc3)nc12	25	-0.2	-2	-12	-1	-9
Nc1c(Cl)cc(-c2[nH]c3cc(C(=O)NCCO)ccc3c(=O)c2O)cc1Cl	-11	1.2	3	28	/	3
CCCCn1nc2cc(C(=O)NCc3ccc(C(F)(F)F)cc3C(F)(F)F)ccc2c1OCC	12	0.7	16	-6	-9	-17
CC(=O)N1CCc2cc(S(=O)(=O)CCC(=O)N3CCN(c4ccccc4)CC3)ccc21	26	-0.4	2	-8	1	-9
COc1ccc(C(=O)Nc2ccccc2C(=O)N/N=C/c2ccco2)cc1	-4	0.1	-3	3	0	0
CN(C(=O)C12CC3CC(CC(C3)C1)C2)C1CCS(=O)(=O)C1 (configuration not stated)	-8	-0.5	1	0	2	-12
Cc1ccc(C(=O)Oc2cccc(NC(=O)c3ccco3)c2)cc1S(=O)(=O)N1CCC(C)CC1	-18	0.0	-9	22	-4	-6
COc1ccc(C)cc1N(CC(=O)NCCSCc1cccc(Cl)c1)S(C)(=O)=O	?	-0.4	-8	9	3	-2
Nc1nc(SCc2nnc(SCC(=O)O)n2-c2ccccc2)nc2sc3c(c12)CCCC3	4	0.4	?	-13	?	5
Cc1ccc(NC2CCCN(C(=O)c3cnsn3)C2)cc1C (configuration not stated)	4	-1.5	-5	20	-7	-7
O=C(NC(=S)Nc1ccccc1Br)c1ccc2c(c1)OCO2	-15	0.2	-2	0	3	13
c1ccc(Oc2nc(-c3cccnc3)nc3ccccc23)cc1	-6	-0.8	4	-3	/	-26
N#Cc1ccc(C23CC4(C2)[C@H](CN(Cc2ccc(C(F)(F)F)cc2)[C@@H]4c2ccccc2)C3c2ccccc2)cc1 (some centres not stated)	-28	-0.4	0	0	/	-2
CN(C)C(=O)Nc1ccc(F)cc1F	-9	0.8	2	0	6	-2
COc1ccc(S(=O)(=O)C(C#N)c2nc3ccccc3nc2N2CCCC(C)C2)cc1 (configuration not stated)	6	1.8	0	-12	-7	0
CCNC(=O)C1CC(=O)N(Cc2ccc3c(c2)OCO3)C(=Nc2ccc(F)cc2)S1 (configuration not stated)	-4	1.1	7	-2	3	-2
CCOC(=O)CC1C(=O)NCCN1C(=S)NC(=O)c1ccccc1OC (configuration not stated)	6	0.8	9	-12	-2	1
COc1ccc(N2CCN(C(=O)c3cc(-c4ccc(F)cc4)[nH]c3C)CC2)cc1	-8	/	-21	/	0	-21
OCCC1CN(Cc2nc(-c3ccccc3)cs2)CCN1CCc1ccccc1 (configuration not stated)	-2	0.6	-9	-9	-2	-5
SMILES	TRPV1 PAM	TRPML1 agonist	Six1-Eya2 blk	TRPML1 blocker	CtBP-E1A blk	D2 potentiator
O=C1C2CCCN2C(c2ccccc2)N1c1ccc(Cl)cc1 (configuration not stated)	2	0.1	4	6	8	-5
CCc1ccccc1N(C(=O)c1snc(C(N)=O)c1N)C(C(=O)NCC1CCCO1)c1c[nH]c2ccccc12 (configuration not stated)	3	2.4	-15	-8	0	-3
O=C(NC1CCCC1)C(c1ccco1)N(C(=O)c1csnn1)c1ccccc1 (configuration not stated)	1	-0.4	2	9	5	-6
Cc1nn(-c2ccccc2)c(Cl)c1/C=C(\C#N)C(=O)NC(C)C	-1	0.8	-5	-20	-1	27
Cc1cccc(NC(=O)COC(=O)CN2C(=O)c3ccccc3C2=O)c1C	/	-1.0	1	17	-2	1
O=C1C2CCCN2C(c2ccccc2F)N1c1ccc(F)cc1 (configuration not stated)	-3	-0.6	4	5	4	6
O=c1c2cc(Cl)ccc2nc(-c2ccccc2)n1O	12	-0.9	1	-2	3	1
CC1C/C(=N\NC(=S)NCc2ccccc2)CC(C)(C)C1 (configuration not stated)	5	-0.3	?	5	?	-15
Cn1c(NCc2cccs2)nc2ccccc21	6	-0.4	10	-11	12	-15
CCCCCCNCc1cccc(Br)c1	-14	5.6	15	0	15	-20
COc1ccc(C[C@](C)(N)C(=O)O)cc1OC	16	0.8	3	8	0	-1
CSc1ccc(-c2nnn(Cc3ccc(Br)cc3)n2)cc1	9	2.1	34	-7	37	2
Cc1ccc(N2C(=O)CN(Cc3ccccc3)C2=S)cc1C	-13	-1.1	-4	-23	4	-6
COc1cccc(-c2nc3nc(C)cc(C)n3c2NC2CCCCC2)c1	/	-0.8	3	/	0	/
O=C(CCC1CCN(C(=O)c2cncs2)CC1)Nc1ccccc1	2	0.9	12	7	-1	-3
COC(=O)CNC(=O)C(C)(C)Oc1ccc(Cl)cc1	-9	-1.2	-2	-10	4	-1
CC(=O)c1ccc(S(=O)(=O)N2CCCc3ccccc32)cc1	11	-0.9	0	-4	/	-1
COc1ccc(CCN2CC(C(=O)NCCc3ccc(F)cc3)CCC2=O)cc1 (configuration not stated)	10	-0.5	1	17	4	-7
CN=C(Nc1ccccc1OC)SC1CC(=O)N(c2ccc(C(=O)OC)cc2)C1=O (configuration not stated)	-1	0.0	0	2	10	-9
Cc1cc(C)cc(Nc2ncc3c(n2)CC(c2ccco2)CC3=O)c1 (configuration not stated)	-33	0.9	-12	3	-6	2
[O-][N+](=Cc1ccccc1)c1ccc(Cl)cc1	/	0.9	1	-3	-13	-18
N#CCSc1nnc(-c2ccccc2)c(-c2ccccc2)n1	-2	2.9	0	24	-6	-7
O=C(CCC(=O)Nc1ccccc1)N/N=C/C=C/c1ccccc1	-10	-0.4	-7	-4	1	-2
Cc1nn(-c2ccccc2)c(N)c1C(O)(CSc1nccn1C)C(F)(F)F (configuration not stated)	4	0.9	-3	-16	1	6
O=C(NCCO)c1ccccc1O	-2	-0.3	-2	-6	-1	-3
SMILES	TRPV1 PAM	TRPML1 agonist	Six1-Eya2 blk	TRPML1 blocker	CtBP-E1A blk	D2 potentiator
CCCCNC(=O)COC(=O)c1cc(S(=O)(=O)N2CCCCCC2)ccc1OC	2	0.7	-3	12	0	-7
O=C(COc1ccc(Br)cc1)N(Cc1cccs1)C1CCS(=O)(=O)C1 (configuration not stated)	-10	-0.2	6	5	2	-7
CCCCn1c(=O)[nH]c(=O)c2c(C(=O)OCC)cc(-c3ccc(OC(F)F)cc3)nc21	-1	1.8	5	17	/	-6
Cc1ccc(CN2CCNC2=O)cc1	-2	0.1	-7	-2	6	-2
Cc1ccc(-c2nnc3ccc(SCC(=O)N4CCc5ccccc54)nn23)cc1	19	0.0	11	-6	0	-5
O=C(OCC(=O)N1CCOCC1)c1ccc[nH]c1=O	-2	-1.0	7	-3	4	-4
O=c1[nH]c(CSc2ccccn2)nc2ccccc12	-12	-0.9	2	-4	4	-4
COc1cc(OC)c(NC(=O)c2csc(C)c2)cc1Cl	2	-0.4	0	2	2	-1
CN=c1scc(-c2ccc(F)cc2)n1/N=C/c1ccc(O)c(O)c1	-3	3.1	?	22	-27	?
O=C(COC(=O)c1cc([N+](=O)[O-])ccc1NCc1ccccc1)NC1CCCc2ccccc21 (configuration not stated)	17	1.2	2	39	-1	-12
O=[N+]([O-])c1ccc(-c2nc(C(Cl)Cl)c3ccccc3n2)cc1	6	0.1	-4	13	1	-1
CCOC(=O)C(C)n1cnc2c(nnn2Cc2ccc(Cl)cc2)c1=O (configuration not stated)	-14	1.3	1	-24	8	-8
CC(=O)c1sc(NC(=O)C(C)(C)C)nc1C	24	-0.4	1	2	8	-14
CC12CN3CC(C)(CN(C1)C3c1c[nH]c3ccccc13)C2=O (configuration not stated)	1	1.5	11	2	-6	-7
CC(CNC1CCCCC1)OC(=O)c1ccc([N+](=O)[O-])cc1 (configuration not stated)	/	0.1	7	-22	0	-9
Cc1ccc2nc(CSc3nnc4ccccn34)cc(=O)n2c1	21	0.4	-1	-4	5	-13
Cc1cccc(NC(=S)NCCc2ccc3c(c2)OCCO3)c1C	-13	-0.7	-11	-4	-7	-9
CCOC(=O)c1c(C)[nH]c(C(=O)CSc2nnnn2-c2ccc(C)cc2)c1C	9	0.8	0	12	-3	2
Cc1cc(S(=O)(=O)NCC(c2ccccc2)c2ccccc2)ccc1-n1cnnn1	17	-0.5	-2	-6	-5	4
N#CC1(N2CCN(C(=O)c3ccccc3)CC2)CCCCC1	-3	-0.1	4	17	/	-1
CCCCNC(c1ccccc1)c1ccncc1 (configuration not stated)	-7	-0.1	1	8	5	0
CCCCn1c(SCC2CCCO2)nc2cc(S(N)(=O)=O)ccc21 (configuration not stated)	-16	-0.9	-1	-13	0	-10
O=C(CN1CC(=O)Oc2ccccc21)OCC(=O)c1ccc(Br)cc1	/	-0.8	-91*	-1	-87*	-22
Cc1cc(N/N=C/c2ccncc2)nc2ccccc12	11	0.3	3	0	/	-19
CNC(=O)COC(=O)c1ccccc1NC(=O)c1ccco1	/	/	-3	/	-13	-8
Cc1cc(N2C(=O)CC(Cc3ccccc3)C2=O)no1 (configuration not stated)	-12	-0.5	3	5	5	-10
COCCn1cnc2c(c1=O)c1nc3ccccc3nc1n2/N=C/c1ccc(OC)c(OC)c1	-1	1.5	-11	-13	-11	-6
COCCOC(=O)c1c(C)oc2cc(Br)c(OCC(N)=O)cc12	2	0.4	16	-29	-9	-7

Screening results deposited in PubChem by National Center for Advancing Translational Sciences (NCATS).
